Assay outcomes as filed in PubChem BioAssay.
INS promoter inh – TRM-6 insulin promoter activity inhibition | inhibition, % at 2 µM | TRM-6 cells (human fetal islet line), insulin promoter-eGFP reporter, imaging; reporter expression induced with tamoxifen | AID 1273 | 0.9% of 130,000 active;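 active means inhibition above the mean plus 3 SD, with well images judged a real hit on visual review, cut at about 60% in these data, passing the limit was not always enough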
GALR2 ag – activates the human galanin receptor 2; O43603; GALR2-expressing cells, agonist activation read-out; activation, %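 (tested at 5 µM)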; 0.48% of 140,000 active;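 active means above mean plus 3 SD of all compounds, about 5% in these data, not always enough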;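 further: 0% = vehicle buffer wells and 100% = reference agonist at full effect; tested in CHO reporter cells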
PKD1 inh – PKD1 (human) kinase inhibition | PKD1 kinase fluorescence polarization assay | 0.056% of 200,000 active | inhibition, %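 (about 10 µM by stock and volumes)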;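 active means inhibition of 50% or more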;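 further: controls were vehicle for no effect and a reference inhibitor for full effect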
Target sequence (Q15139 whole entry, looked up): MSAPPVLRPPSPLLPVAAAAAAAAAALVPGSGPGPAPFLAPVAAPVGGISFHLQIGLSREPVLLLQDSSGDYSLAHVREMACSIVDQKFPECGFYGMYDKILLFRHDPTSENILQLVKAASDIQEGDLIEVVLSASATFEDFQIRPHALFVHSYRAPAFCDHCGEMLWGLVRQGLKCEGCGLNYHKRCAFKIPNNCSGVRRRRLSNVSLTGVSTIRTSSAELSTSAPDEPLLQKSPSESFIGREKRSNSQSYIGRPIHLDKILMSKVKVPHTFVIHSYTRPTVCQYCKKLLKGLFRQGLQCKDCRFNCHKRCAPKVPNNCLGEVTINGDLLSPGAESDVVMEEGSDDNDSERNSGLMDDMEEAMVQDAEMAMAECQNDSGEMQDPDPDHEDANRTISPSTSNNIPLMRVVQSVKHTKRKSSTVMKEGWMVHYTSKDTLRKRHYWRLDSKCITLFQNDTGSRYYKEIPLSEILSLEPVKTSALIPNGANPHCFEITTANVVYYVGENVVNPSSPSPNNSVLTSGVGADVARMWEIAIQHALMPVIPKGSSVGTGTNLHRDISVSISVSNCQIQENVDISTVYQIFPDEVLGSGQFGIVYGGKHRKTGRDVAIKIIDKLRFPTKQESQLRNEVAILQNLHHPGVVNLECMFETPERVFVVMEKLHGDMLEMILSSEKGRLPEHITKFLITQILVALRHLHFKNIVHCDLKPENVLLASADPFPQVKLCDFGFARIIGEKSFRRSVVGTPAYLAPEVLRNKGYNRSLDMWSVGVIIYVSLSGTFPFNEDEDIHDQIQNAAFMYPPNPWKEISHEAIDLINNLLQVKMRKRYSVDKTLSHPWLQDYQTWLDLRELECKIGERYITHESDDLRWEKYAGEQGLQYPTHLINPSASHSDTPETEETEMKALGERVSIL
HSV augment – HSV replication enhancement. HSV replication augmentation in cells, fold increase. maximum fold increase. 0.005% of 220,000 active;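 active means peak rise of 1.5-fold or more in the series; tested in PC3 cells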;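 further: first round at 10 µM; read as green reporter fluorescence; hits show the peak of a series up to 25 µM; 1 = signal of infected wells without compound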
RGS16-Gao – RGS16-Galphao interaction regulator (human); 0.38% of 220,000 active; binding response (% of control), % at 10 µM; O15492+P09471; bead-based flow cytometry RGS16-Galphao binding, fluorescence; actives lie on both sides;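 active means below 25% or above 175%, edge rows of some plates excepted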;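 further: Galphao activated by GDP with aluminum fluoride before binding; 100% = wells without compound and 0% = beads without RGS; some results beyond the cut were filed as inactive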
INS promoter inh cell count – further read-out of INS promoter inh, marked with its call; normalized cell count, %; measured here: cell count, toxicity; reference of the scale not given here;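 cells exposed to compound for 48 h; stained nuclei by imaging scaled within each plate; lower means fewer cells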
HSV augment primary fold – recorded beside HSV augment, whose call it bears; fold increase; compound at 10 µM; measured here: primary screen fold increase 10 uM; tested in PC3 cells;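 GFP signal in the first replicate; 1 = infected wells without compound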
Active calls of the source: *.

CS(=O)(=O)N1CCC(C(=O)NCC2CCCO2)CC1 (stereo not given) was read as INS promoter inh 5, GALR2 ag 0.4, PKD1 inh -5, RGS16-Gao 101 and INS promoter inh cell count 135.
Screening CCCCCc1nnc(NC(=O)Cc2ccc([N+](=O)[O-])cc2)s1 returned PKD1 inh 4, HSV augment inactive, RGS16-Gao 110 and HSV augment primary fold 1.1.
Screening O=C(NCCCN1CCOCC1)c1coc2ccccc2c1=O returned GALR2 ag -0.9, PKD1 inh -2, HSV augment inactive, RGS16-Gao 103 and HSV augment primary fold 0.89.
COc1ccccc1S(=O)(=O)Cc1ccc(C(=O)NCc2cccnc2)o1 was read as GALR2 ag -2.9, PKD1 inh 7, HSV augment inactive, RGS16-Gao 102 and HSV augment primary fold 1.1.
CN(C)c1ccc(/C=C/C(=O)c2ccccc2)cc1[N+](=O)[O-] was read as GALR2 ag -2.2, PKD1 inh -5, HSV augment inactive, RGS16-Gao 154 and HSV augment primary fold 0.84.
`CC(=O)c1cccc(NC(=O)C2CCN(S(=O)(=O)c3c(C)n[nH]c3C)CC2)c1` gave INS promoter inh 31, GALR2 ag -1.8, PKD1 inh -2, HSV augment inactive, RGS16-Gao 100, INS promoter inh cell count 98 and HSV augment primary fold 0.97.
For Cc1cc(NC(=O)CSc2nnc(C3CC3)n2C)no1 the results were INS promoter inh 44, GALR2 ag -3.3, PKD1 inh -11, HSV augment inactive, RGS16-Gao 105, INS promoter inh cell count 96 and HSV augment primary fold 1.1.
Screening COc1ccc(N2C(=O)c3cccc4cc(Br)cc(c34)C2=O)cc1 returned PKD1 inh 2, HSV augment inactive, RGS16-Gao 102 and HSV augment primary fold 0.95.
CCCN(CCC)S(=O)(=O)c1ccc(C(=O)N2CCCc3ccccc32)cc1 was read as INS promoter inh 10, GALR2 ag 0.9, PKD1 inh -5, HSV augment inactive, RGS16-Gao 103, INS promoter inh cell count 105 and HSV augment primary fold 0.82.
`Cc1ccc(C2C(C(=O)c3cc4ccccc4o3)=C(O)C(=O)N2CCN2CCOCC2)o1` (stereo not given) gave GALR2 ag -0.4, PKD1 inh -2, HSV augment inactive, RGS16-Gao 98 and HSV augment primary fold 0.89.
COc1ccc(C(CC(=O)N2CCOCC2)C(C)C)cc1 (stereo not given) was read as INS promoter inh -11, GALR2 ag -2.5, PKD1 inh -9, HSV augment inactive, RGS16-Gao 120, INS promoter inh cell count 161 and HSV augment primary fold 0.99.
For CC(=NCC1CCCO1)C1=C(O)CC(C)(C)CC1=O (stereo not given) the results were INS promoter inh 20, GALR2 ag -1.2, PKD1 inh 1, HSV augment inactive, RGS16-Gao 99, INS promoter inh cell count 150 and HSV augment primary fold 0.89.
Cc1ccc(N=Cc2sc(O)c3ccccc23)c(C)c1 was read as INS promoter inh 4, GALR2 ag -2.9, PKD1 inh 1, HSV augment inactive, RGS16-Gao 94, INS promoter inh cell count 57 and HSV augment primary fold 0.91.
Screening O=C(c1ccc(F)cc1)N1CCN(c2ccc([N+](=O)[O-])c(N3CCOCC3)c2)CC1 returned INS promoter inh -10, GALR2 ag -1.0, PKD1 inh -11, HSV augment inactive, RGS16-Gao 111, INS promoter inh cell count 106 and HSV augment primary fold 1.
For C=CCn1c(SCC(=O)N2CCCCC2)nc(O)cc1=O the results were INS promoter inh 28, GALR2 ag -1.5, PKD1 inh 8, HSV augment inactive, RGS16-Gao 108, INS promoter inh cell count 95 and HSV augment primary fold 0.89.
For Cc1nc2cc(NC(=O)NCc3ccco3)ccc2o1 the results were INS promoter inh -5, GALR2 ag -0.3, PKD1 inh -9, HSV augment inactive, RGS16-Gao 100, INS promoter inh cell count 148 and HSV augment primary fold 1.2.
COC(C[C@@H](O)[C@@H](C)[C@@H](O)COCc1ccccc1)OC was read as HSV augment inactive, RGS16-Gao 72 and HSV augment primary fold 1.
Screening Cc1nnc(SCC(=O)N/N=C/c2cn(-c3ccccc3)nc2-c2ccc(F)cc2)n1-c1ccccc1 returned INS promoter inh -5, GALR2 ag -1.0, PKD1 inh -6, HSV augment inactive, RGS16-Gao 104, INS promoter inh cell count 87 and HSV augment primary fold 0.9.
`COc1cc(/C=C2/NC(=O)N(Cc3ccccc3F)C2=O)cc(OC)c1OC` gave PKD1 inh -4, HSV augment inactive, RGS16-Gao 103 and HSV augment primary fold 0.89.
CCC(C(=O)OCC(=O)Nc1cccc(OC)c1)c1ccccc1 (stereo not given) was read as INS promoter inh 73*, PKD1 inh -3, HSV augment inactive, RGS16-Gao 105, INS promoter inh cell count 150* and HSV augment primary fold 0.97.
For O=C(CC(NC(=O)c1ccccc1Cl)c1ccccc1)NC1=NCCS1 (stereo not given) the results were PKD1 inh -4, HSV augment inactive, RGS16-Gao 100 and HSV augment primary fold 1.1.
`O=C(CCc1ccc(Oc2cc([N+](=O)[O-])cc([N+](=O)[O-])c2)cc1)N1CCCCC1` gave GALR2 ag -1.3, PKD1 inh -5, HSV augment inactive, RGS16-Gao 154 and HSV augment primary fold 0.97.
`COc1ccc(C(=O)Nc2cccc(-c3nc4ncccc4o3)c2C)cc1` gave INS promoter inh -270, GALR2 ag -2.2, PKD1 inh -10, HSV augment inactive, RGS16-Gao 107, INS promoter inh cell count 116 and HSV augment primary fold 0.91.
`Cc1cccc(C(=O)Nc2nnc(-c3cccnc3)o2)c1` gave INS promoter inh 64, PKD1 inh -9, HSV augment inactive, RGS16-Gao 92, INS promoter inh cell count 57 and HSV augment primary fold 0.94.

Fetched one by one from the entries so far (six):
`O=C(CCc1ccc(Oc2cc([N+](=O)[O-])cc([N+](=O)[O-])c2)cc1)N1CCCCC1` gave GALR2 ag -1.3, PKD1 inh -5, HSV augment inactive, RGS16-Gao 154 and HSV augment primary fold 0.97.
`Cc1cccc(C(=O)Nc2nnc(-c3cccnc3)o2)c1` gave INS promoter inh 64, PKD1 inh -9, HSV augment inactive, RGS16-Gao 92, INS promoter inh cell count 57 and HSV augment primary fold 0.94.
COC(C[C@@H](O)[C@@H](C)[C@@H](O)COCc1ccccc1)OC was read as HSV augment inactive, RGS16-Gao 72 and HSV augment primary fold 1.
Screening O=C(c1ccc(F)cc1)N1CCN(c2ccc([N+](=O)[O-])c(N3CCOCC3)c2)CC1 returned INS promoter inh -10, GALR2 ag -1.0, PKD1 inh -11, HSV augment inactive, RGS16-Gao 111, INS promoter inh cell count 106 and HSV augment primary fold 1.
For C=CCn1c(SCC(=O)N2CCCCC2)nc(O)cc1=O the results were INS promoter inh 28, GALR2 ag -1.5, PKD1 inh 8, HSV augment inactive, RGS16-Gao 108, INS promoter inh cell count 95 and HSV augment primary fold 0.89.
`COc1cc(/C=C2/NC(=O)N(Cc3ccccc3F)C2=O)cc(OC)c1OC` gave PKD1 inh -4, HSV augment inactive, RGS16-Gao 103 and HSV augment primary fold 0.89.

Next results follow:
For CCc1cc2c(=O)nc3n(c2s1)Cc1ccccc1/C3=C(/O)c1ccccc1Cl the results were INS promoter inh -71, GALR2 ag -1.0, PKD1 inh 4, RGS16-Gao 97 and INS promoter inh cell count 102.
`CCc1cc(C(=O)Cc2cnn(-c3ccccc3)c2)c(O)cc1O` gave GALR2 ag -3.3, PKD1 inh -4, HSV augment inactive, RGS16-Gao 102 and HSV augment primary fold 0.8.
CCOc1cc(/C=C2/COc3ccccc3C2=O)ccc1OCC(=O)N(C)C was read as PKD1 inh -9, HSV augment inactive, RGS16-Gao 102 and HSV augment primary fold 0.56.
`CC(=O)OC(C(=O)NCc1ccc(F)cc1)c1ccccn1` (stereo not given) gave INS promoter inh 24, GALR2 ag -0.1, PKD1 inh -2, HSV augment inactive, RGS16-Gao 104, INS promoter inh cell count 64 and HSV augment primary fold 0.98.
`CC1(C)C(c2cccs2)=NC(c2ccccc2)N1O` (stereo not given) gave INS promoter inh 17, GALR2 ag -0.4, PKD1 inh -12, HSV augment inactive, RGS16-Gao 93, INS promoter inh cell count 102 and HSV augment primary fold 1.1.
COc1cc(C(=O)Nc2nccs2)ccc1OCc1c(C)noc1C was read as INS promoter inh 34, GALR2 ag -0.8, PKD1 inh -9, HSV augment inactive, RGS16-Gao 109, INS promoter inh cell count 110 and HSV augment primary fold 0.84.
Cc1cc(C)cc(OCC(=O)OCC(=O)NCc2cccs2)c1 was read as GALR2 ag -2.1, PKD1 inh -4, HSV augment inactive, RGS16-Gao 80 and HSV augment primary fold 0.95.
`Cc1cccc(C(=O)OC2CCN(C)CC2)c1` gave PKD1 inh 5, HSV augment inactive, RGS16-Gao 102 and HSV augment primary fold 0.96.
`CCOC(=O)C1CCN(CC(O)COc2ccc(C(=O)CC)cc2)CC1` (stereo not given) gave INS promoter inh 37, GALR2 ag 0.8, PKD1 inh -9, HSV augment inactive, RGS16-Gao 86, INS promoter inh cell count 70 and HSV augment primary fold 1.1.
`COC(=O)CC1SCCNC1=O` (stereo not given) gave INS promoter inh -36, GALR2 ag 0.2, PKD1 inh -2, HSV augment inactive, RGS16-Gao 89, INS promoter inh cell count 54 and HSV augment primary fold 1.1.
CC1=CC(=O)OC1Cc1ccncc1 (stereo not given) was read as INS promoter inh 7, GALR2 ag -2.3, PKD1 inh -7, HSV augment inactive, RGS16-Gao 101, INS promoter inh cell count 195 and HSV augment primary fold 0.98.
CN1CCN(c2ccccc2NC(=O)COc2ccccc2)CC1 was read as INS promoter inh -64, GALR2 ag 0.2, PKD1 inh -1, HSV augment inactive, RGS16-Gao 101, INS promoter inh cell count 64 and HSV augment primary fold 0.97.
CCCn1c(SCC(N)=O)nnc1C(C)C was read as INS promoter inh 17, GALR2 ag 0.3, PKD1 inh -3, HSV augment inactive, RGS16-Gao 102, INS promoter inh cell count 132 and HSV augment primary fold 0.91.
Screening CC(C)Oc1cccc(C(=O)C2CCCN(C(=O)c3noc4c3CCCC4)C2)c1 (stereo not given) returned PKD1 inh -6, HSV augment inactive, RGS16-Gao 98 and HSV augment primary fold 0.87.
O=C(N/N=C/C=C/c1ccccc1)c1ccccc1Br was read as INS promoter inh -9, GALR2 ag -1.3, PKD1 inh 2, HSV augment inactive, RGS16-Gao 99, INS promoter inh cell count 101 and HSV augment primary fold 0.92.
For CC(C)CCc1noc(CN(CC2CCC2)CC2CCCO2)n1 (stereo not given) the results were HSV augment inactive, RGS16-Gao 104 and HSV augment primary fold 1.
For C/C(=N\Nc1cc(C)nc(-c2ccccc2O)n1)c1ccccc1 the results were INS promoter inh -6, PKD1 inh -6, HSV augment inactive, RGS16-Gao 134, INS promoter inh cell count 60 and HSV augment primary fold 0.97.
For CC1(C(=O)OCC(=O)Nc2ccccc2)CC1(Cl)Cl (stereo not given) the results were PKD1 inh -1, HSV augment inactive, RGS16-Gao 104 and HSV augment primary fold 0.94.
`O=[N+]([O-])c1ccc(N/N=C/c2sc(N3CCOCC3)nc2-c2ccccc2)c(S(=O)(=O)Nc2ccccc2Cl)c1` gave PKD1 inh 0, HSV augment inactive, RGS16-Gao 102 and HSV augment primary fold 1.1.
For COc1cc(OC)nc(S(C)(=O)=O)n1 the results were INS promoter inh 27, GALR2 ag -0.1, PKD1 inh -1, HSV augment inactive, RGS16-Gao 83, INS promoter inh cell count 55 and HSV augment primary fold 0.99.
`COc1ccc(C(C)=O)cc1CN1C(=O)NC2(CCCCC2)C1=O` gave INS promoter inh 39, GALR2 ag -1.9, PKD1 inh 0, HSV augment inactive, RGS16-Gao 96, INS promoter inh cell count 121 and HSV augment primary fold 1.1.
For Cc1sc2nc(SCC(=O)NCc3ccco3)n(CCc3ccccc3)c(=O)c2c1C the results were INS promoter inh 6, GALR2 ag -0.7, PKD1 inh -9, HSV augment inactive, RGS16-Gao 104, INS promoter inh cell count 102 and HSV augment primary fold 0.87.
O=C(O)CSc1nc(-c2ccccc2)nc2c1CCCC2 was read as HSV augment inactive, RGS16-Gao 102 and HSV augment primary fold 0.99.
For Cc1ccccc1NC(=O)c1c(-c2ccccc2)noc1C the results were GALR2 ag -1.9, PKD1 inh -1, HSV augment inactive, RGS16-Gao 102 and HSV augment primary fold 1.1.
Screening CCCCC(=O)Nc1ccc(NC(=O)c2ccc(C)c([N+](=O)[O-])c2)cc1OC returned INS promoter inh -8, GALR2 ag -0.7, PKD1 inh 6, HSV augment inactive, RGS16-Gao 100, INS promoter inh cell count 79 and HSV augment primary fold 0.94.
CCc1ccc(N(CC(=O)Nc2ccc(OC)cc2OC)S(C)(=O)=O)cc1 was read as GALR2 ag -0.3, PKD1 inh 1, HSV augment inactive, RGS16-Gao 100 and HSV augment primary fold 1.
Screening C=CCc1cccc(OC)c1OCCOCCNCCO returned INS promoter inh 43, GALR2 ag -1.3, PKD1 inh -1, HSV augment inactive, RGS16-Gao 119, INS promoter inh cell count 39 and HSV augment primary fold 0.99.

Not a hit list, and some 1.2% of all compounds hit somewhere here.
